Source: PubChem BioAssay
Arbovirus anti = antivirals against arbovirus infection. arbovirus infection cell-based antiviral screen. 200,000 tested, 0.37% active. inhibition, % at 10 µM. AID 1251;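 active = inhibition from about 30%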;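 note: bluetongue infection of BSR cells; cell survival read as ATP light after 72 h; 0% = infected wells without compound and 100% = uninfected wells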
YopH inh = blocks Yersinia enterocolitica YopH tyrosine phosphatase. fluorescence Ex485/Em525. AID 898. 140,000 tested, 0.16% active. inhibition, %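 (about 10 µM by stock and volumes)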;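 active = inhibition of 50% or more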;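 note: controls were vehicle for no effect and minimum signal wells for full effect; inactives centre near -20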
RecA splice inh = inhibitors of M. tuberculosis RecA intein splicing; P9WHJ3; cell-free RecA intein splicing, fluorescence; inhibition, %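 (about 9 µM by stock and volumes)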; 290,000 tested, 0.75% active; AID 2221; in the data active = inhibition above about 30%; inconclusive = no clear call, values can overlap the other calls;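 note: 0% = vehicle wells and 100% = reference inhibitor control wells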
Target sequence (P9WHJ3 whole entry, looked up, canonical isoform): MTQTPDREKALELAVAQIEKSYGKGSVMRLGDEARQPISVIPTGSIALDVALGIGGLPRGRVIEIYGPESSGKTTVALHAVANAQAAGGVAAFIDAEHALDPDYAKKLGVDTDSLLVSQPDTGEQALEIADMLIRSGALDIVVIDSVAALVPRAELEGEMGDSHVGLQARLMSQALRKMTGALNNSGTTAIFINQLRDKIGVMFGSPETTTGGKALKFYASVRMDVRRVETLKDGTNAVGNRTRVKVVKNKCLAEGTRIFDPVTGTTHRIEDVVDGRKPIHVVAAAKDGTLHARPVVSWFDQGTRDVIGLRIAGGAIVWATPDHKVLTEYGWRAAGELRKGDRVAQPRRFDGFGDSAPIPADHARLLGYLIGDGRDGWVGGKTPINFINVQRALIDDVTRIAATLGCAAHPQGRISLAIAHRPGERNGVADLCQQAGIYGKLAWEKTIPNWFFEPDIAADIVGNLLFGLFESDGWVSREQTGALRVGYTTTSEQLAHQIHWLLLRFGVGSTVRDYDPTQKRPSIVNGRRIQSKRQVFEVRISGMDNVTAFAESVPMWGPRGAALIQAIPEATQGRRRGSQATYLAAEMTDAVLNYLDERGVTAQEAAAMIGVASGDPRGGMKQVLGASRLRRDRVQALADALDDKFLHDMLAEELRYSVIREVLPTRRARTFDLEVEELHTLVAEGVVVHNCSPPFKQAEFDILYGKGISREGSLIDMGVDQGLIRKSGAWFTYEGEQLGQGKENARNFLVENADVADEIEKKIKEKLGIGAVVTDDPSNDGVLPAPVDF
Mtb bLac sens = beta-lactam sensitization of Mtb H37Rv | M. tuberculosis H37Rv growth with meropenem, percent inhibition; hits of this screen are not shown here | inhibition, % at 25 µM | 330,000 tested, 0.27% active;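 active = about 74% or more and at least 40 points above the plate without the antibiotic, then above 30% in a dose series; inconclusive = first-round hits that could not be retested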;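 note: growth measured after seven days incubation then overnight dye step; 0% = bacteria only wells and 100% = bacteria with antibiotic; twin plates without the antibiotic show which effects depend on it; some results filed as inactive read as strong as hits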
Mtb growth = M. tuberculosis H37Rv growth inhibitors, H37Rv strain (AID 1626). inhibition, % at 10 µM, or IC50 in µM where a hit was titrated. M. tuberculosis H37Rv growth inhibition; higher % means a stronger effect. 220,000 tested, 0.95% active;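 active = confirmed in a dose series; inconclusive = inhibition above 80% but not taken into the dose series; inactive = below 80% or under 30% at every dose of the series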;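 note: bacteria incubated seven days before Alamar blue readout; 0% = bacteria only wells and 100% = bacteria with antibiotic wells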
Arbovirus anti repeat = second read-out of Arbovirus anti, no call of its own (marks repeat the call); inhibition, %; measured here: 10K subset replicate screen; many hits read low in the repeat;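 first of two repeat runs on a subset; 0% = infected and 100% = uninfected wells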
* = called active by the depositor; ? = inconclusive; nt = no result given. Only part of the results is shown (hit frequency here may not be typical).

SMILES | Arbovirus anti | YopH inh | RecA splice inh | Mtb bLac sens | Mtb growth | others
Cc1ccc(NC(=O)O/N=C/c2ccc(N(C)C)cc2)cc1 | nt | nt | -2.6 | -9 | nt
Cc1ccc(-c2onc(C)c2C)cc1S(=O)(=O)N1CC(C)Oc2ccccc21 (configuration not stated) | nt | nt | 12 | ? | nt
O=C(O)CNS(=O)(=O)c1ccc2c(c1)C(=O)c1cc(S(=O)(=O)NCC(=O)O)ccc1-2 | nt | nt | -1.9 | 4 | nt
COc1ccc(-c2coc3c(C)c4oc(=O)c(CCC(=O)O)c(C)c4cc23)cc1 | nt | nt | 1.8 | 30 | nt
CCOC(=O)N1CCN(C(=S)NC(=O)c2ccnn2C)CC1 | -5 | -27 | -0.4 | 8 | 7%
O=C(NN1CCOCC1)c1cccc(F)c1 | nt | nt | -2.1 | 4 | nt
CCCCCN(C(=O)CCCSc1nncs1)c1c(N)n(CCCC)c(=O)[nH]c1=O | 2 | nt | -2.8 | 5 | 3%
COc1ccc(C(=O)/C=C/N(C)C)cc1 | 10 | -40 | -2.2 | 3 | -5%
CC(C)Cc1nnc(NC(=O)CCC(=O)N2CCN(Cc3ccccc3)CC2)s1 | nt | nt | -1.5 | 7 | nt
CCC(C)(C)NC(=O)C(c1cccc(OC)c1OC)N(CCC(C)C)C(=O)CCC(=O)Nc1cc(C)on1 (configuration not stated) | -7 | nt | 0.4 | -3 | 4%
COc1ccc(C2C(C(C)=O)=C(C)Nc3ncnn32)cc1 (configuration not stated) | nt | nt | 0.2 | -9 | nt
CCCCCC(=O)Nc1cccc(C2=NOC3(C2)C[C@H](C(N)=O)N(C(=O)CC)C3)c1 (some centres not stated) | nt | nt | -0.7 | -8 | -7%
Cc1ccc2nc(SCC(=O)N3CCOCC3)[nH]c2c1 | 3 | -12 | -2.6 | 6 | -3%
COc1cc2ccccc2cc1C(=O)N(CCN(C)C)c1nc2c(F)cc(F)cc2s1 | nt | nt | 7.7 | 2 | nt
COc1ccc(C(NC(=O)c2ccc(=O)[nH]c2)C(=O)Nc2ccc(C(C)C)cc2)cc1 (configuration not stated) | -5 | nt | -1.9 | 4 | 0%
CCOc1ccc(Br)cc1S(=O)(=O)N1CCC(C(N)=O)CC1 | 11 | nt | -4.3 | -7 | -2%
COc1ccc(NC(=O)c2cc(S(=O)(=O)N3CCCC3)ccc2OC)cc1 | nt | nt | -7.1 | 7 | nt
COc1ccc(-c2cn(CCc3c[nH]c4ccccc34)nn2)cc1 | nt | nt | 1.9 | -6 | nt
Nc1c(C(=O)Nc2ccc3c(c2)OCCO3)nnn1Cc1ccccc1 | nt | nt | -0.3 | 1 | nt
CCc1cc(/C(Cc2cscn2)=N\O)c(O)cc1O | 1 | -14 | -5.4 | -5 | -8%
COc1ccc(-c2nsc(SCC(=O)Nc3cc(C)on3)n2)cc1 | -4 | -37 | nt | 99 | ?
C[C@H](CO)NC(=O)[C@H](C)[C@@H]1C[C@@]1(C)[C@@H](NC(=O)OCc1ccccc1)c1ccccc1 | 4 | -7 | -4.3 | -12 | -1%
COc1ccc(S(=O)(=O)N2CCN(C)CC2)c(C)c1 | nt | nt | 1.6 | -17 | nt
COc1ccc2ccccc2c1CN1CCCC(CO)C1 (configuration not stated) | 1 | -17 | 1.2 | 4 | -6%
CCOc1ccccc1-c1noc(CCC(=O)NC2CCCCC2)n1 | nt | nt | 1.9 | 8 | nt

Structural class: the entries above containing an aryl thioether with sulfur outside any ring.
SMILES | Arbovirus anti | YopH inh | RecA splice inh | Mtb bLac sens | Mtb growth | others
CCCCCN(C(=O)CCCSc1nncs1)c1c(N)n(CCCC)c(=O)[nH]c1=O | 2 | nt | -2.8 | 5 | 3%
Cc1ccc2nc(SCC(=O)N3CCOCC3)[nH]c2c1 | 3 | -12 | -2.6 | 6 | -3%
COc1ccc(-c2nsc(SCC(=O)Nc3cc(C)on3)n2)cc1 | -4 | -37 | nt | 99 | ?

The listing picks up, repeating the 6 entries before the break.
SMILES | Arbovirus anti | YopH inh | RecA splice inh | Mtb bLac sens | Mtb growth | others
CCc1cc(/C(Cc2cscn2)=N\O)c(O)cc1O | 1 | -14 | -5.4 | -5 | -8%
COc1ccc(-c2nsc(SCC(=O)Nc3cc(C)on3)n2)cc1 | -4 | -37 | nt | 99 | ?
C[C@H](CO)NC(=O)[C@H](C)[C@@H]1C[C@@]1(C)[C@@H](NC(=O)OCc1ccccc1)c1ccccc1 | 4 | -7 | -4.3 | -12 | -1%
COc1ccc(S(=O)(=O)N2CCN(C)CC2)c(C)c1 | nt | nt | 1.6 | -17 | nt
COc1ccc2ccccc2c1CN1CCCC(CO)C1 (configuration not stated) | 1 | -17 | 1.2 | 4 | -6%
CCOc1ccccc1-c1noc(CCC(=O)NC2CCCCC2)n1 | nt | nt | 1.9 | 8 | nt
CC(NC(=O)c1ccc(CS(C)(=O)=O)cc1)c1cccc2ccccc12 (configuration not stated) | nt | nt | 3.9 | -4 | nt
O=C(NNc1nc2ccccc2s1)Nc1ccc(F)cc1 | nt | nt | -13 | -6 | 0%
NC(=O)C1CCN(C2=C(Cl)C(=O)c3ccccc3C2=O)CC1 | -10 | 44 | 43* | 9 | 3%
COc1ccc(-c2cc(=O)oc3cc(OC(=O)C4CCCCC4)ccc23)cc1 | 15 | -12 | 2.4 | 5 | 12%
CCN(c1cccc(C)c1)S(=O)(=O)c1ccc(-c2coc(C)n2)cc1 | nt | nt | -5.6 | -2 | nt
Fc1c(F)c(C(F)(F)F)c(F)c(F)c1N/N=C\c1cccs1 | -16 | -7 | 5.1 | 38 | 3%
COc1ccccc1N1CC(C(=O)Nc2nnc(SCc3ccccn3)s2)CC1=O (configuration not stated) | -4 | -38 | -1.7 | -2 | -1%
Nc1nc(CN2CCN(C(c3ccccc3)c3ccccc3)CC2)nc(Nc2ccccc2)n1 | nt | nt | -0.2 | 43 | 36µM*
CN(CC(=O)NCc1ccncc1)S(=O)(=O)c1ccccc1 | 0 | -11 | -0.1 | 4 | -3%
CCN(CC)S(=O)(=O)c1ccc(N/N=C(\C)c2ccc3c(c2)OCO3)c([N+](=O)[O-])c1 | -4 | -3 | -1.6 | 3 | 2%
COCCNC(=O)c1cccc(Nc2nc(-c3ccccc3)c3cc(Cl)ccc3n2)c1 | -24 | 3 | -1.7 | 6 | 8%
CCCn1c(SCC(=O)N2CCN(C(=O)c3ccco3)CC2)nc2ccccc2c1=O | 23 | nt | 1.3 | -2 | -7%
CCN(CC)CCOC(=O)c1cccc(Cl)c1 | 3 | 3 | -1.4 | -6 | 8%
O=C(COC(=O)c1ccc(Br)c(S(=O)(=O)N2CCOCC2)c1)NCC1CCCO1 (configuration not stated) | -5 | -39 | -1.3 | -10 | -4% | Arbovirus anti repeat=3
COC(=O)/C(=C\c1cc(OC)c(OC)c(OC)c1)c1nc2ccccc2[nH]1 | -33 | nt | -2.3 | 1 | -3%
COc1ccc(N2CCN(S(=O)(=O)c3cc4c(cc3C)NC(=O)CO4)CC2)cc1 | nt | nt | 0.8 | -1 | nt
Cc1csc2c(N3CCN(S(=O)(=O)c4ccc(Cl)cc4)CC3)ncnc12 | nt | nt | nt | -2 | 0%
Cc1ccccc1C(=O)NCc1nnc(SCC(=O)N2CCN(c3ccccc3)CC2)n1C | 2 | -2 | -0.6 | 53 | -2%
Cc1ccc(S(=O)(=O)N2CCCC2C(=O)NCCc2ccccc2)cc1 (configuration not stated) | -5 | nt | -5.3 | -12 | -10%
Cc1cc(NC(=O)CCN2C(=O)/C(=C\c3ccccc3)SC2=S)no1 | nt | nt | -0.8 | -6 | -7%
Brc1c(CSc2nncn2-c2ccccc2)nc2ncccn12 | 6 | -27 | -1.2 | -1 | -1%
C/C(CCN1CCc2nc(-c3ccccc3)c(-c3ccccc3)cc2C1)=N\O[C@H](C)c1cn([C@H](CO)Cc2ccccc2)nn1 | -6 | -5 | 11 | 2 | nt
CC(C)(C)NS(=O)(=O)c1ccc(CCC(=O)N2CCCCC2)cc1 | 5 | 0 | -0.6 | 6 | 2%
CCc1c(O)nc(SCC(=O)Nc2ccc(C)cc2)n(C2CCCCC2)c1=O | 16 | -52 | 6.1 | 2 | -2%
CC(C)OCCCNC(=O)Cn1ccc2cc(S(=O)(=O)N3CCCCC3)ccc21 | nt | nt | 1.1 | 0 | nt
(further entries)
SMILES | Arbovirus anti | YopH inh | RecA splice inh | Mtb bLac sens | Mtb growth | others
COc1ccccc1C(C)NC(=O)CCOc1cccc(C)c1 (configuration not stated) | 17 | nt | 3.7 | -2 | 4%
O=C(O)/C=C/c1ccc2c(-c3ccccc3)onc2c1 | 8 | -11 | 1.3 | -5 | 1%
Cc1cc(Cl)ccc1NC(=S)N1CCN(C(=O)c2ccco2)CC1 | nt | nt | 0.1 | 5 | nt
Cc1cccc(NC(=O)c2onc3c2CCCC3)n1 | -17 | -26 | -3.4 | 4 | 3%
CC(C)CNS(=O)(=O)c1ccc(CCC(=O)N2CCC(C(N)=O)CC2)cc1 | 3 | nt | -0.4 | 4 | 0%
Cc1cccc(NCC(O)Cn2cnc3c2c(=O)n(C)c(=O)n3C)c1 (configuration not stated) | 2 | 3 | 8.1 | -2 | 6%
Cc1csc(C(=O)O)c1-c1c(C)csc1C(=O)O | 4 | -28 | -1.3 | 4 | 10%
COc1ccccc1NS(=O)(=O)c1cc(NC(=O)CNC(=O)c2ccccc2)ccc1C | 4 | -31 | -0.4 | -1 | -12%
O=C(Nc1ccc([N+](=O)[O-])cn1)C1CCCCC1 | -6 | -25 | -2.5 | -8 | 0%
C=C(C)Cn1c(=O)c2c(nc3n2CCN3c2cccc(Cl)c2C)n(C)c1=O | nt | nt | 0.4 | -8 | -12%
OC(COCCC12CC3CC(CC(C3)C1)C2)CN1CCCCC1 (configuration not stated) | -5 | 13 | -2.4 | 1 | 5%
C[N+]12CCC(CC1)C(C(O)(c1ccccc1)c1cccs1)C2 (configuration not stated) | 2 | 0 | -3.2 | -7 | -9%
CN(CCNC(=O)c1ccc(/C=N/O)nc1)Cc1ccccc1 | 1 | -33 | -16 | -5 | -3%
CCC(CO)N=CC1=C(O)CC(c2ccccc2)CC1=O (configuration not stated) | nt | nt | -1.2 | -6 | nt
COc1ccc(Cl)cc1NC(=S)NCCSc1ccc(C)cc1 | -37 | -54 | 12 | 1 | -9%
COc1ccc(CN(C)C(=O)c2ccccc2Sc2ccccc2C#N)cc1OC | nt | nt | 0.7 | -2 | nt
O=C(CSc1nc2ccccc2o1)NC(=O)NCc1ccccc1 | 7 | -14 | 5.2 | 32 | 54%
Cc1cc(C)c(NC(=O)CS(=O)CC(=O)NC2CCCc3ccccc32)c(C)c1 (configuration not stated) | 3 | 1 | -1.7 | 0 | -17%
COCc1cc(C)nc(Nc2cc(C)ccc2C)c1C#N | 6 | -51 | 0.8 | -1 | 12%
CCCN(CC(=O)Nc1ccccc1C)C(=O)c1ccc(S(=O)(=O)N2CCCC2)cc1 | nt | nt | 0.5 | -5 | nt
COc1ccc(Cn2nnnc2C(C(C)C)N2CCN(c3ccccc3OC)CC2)cc1 (configuration not stated) | -29 | -24 | nt | 9 | 1%
C#C[C@]1(O)CC[C@H]2[C@@H]3CCc4cc(OC)ccc4[C@H]3CC[C@@]21C | -8 | -17 | 4.6 | 2 | 5%
Cc1cc(N)c(-n2cc3c(=O)n(C)c(=O)n(C)c3c2)cc1C | 0 | -33 | -4.1 | 13 | 9%
O=C(CSCc1ccccc1)N1CCN(Cc2ccc3c(c2)OCO3)CC1 | -13 | -24 | 1.8 | -12 | 5%
CC1(c2nnc(-c3ccc(F)cc3)o2)CC(c2ccc([N+](=O)[O-])cc2)=NO1 (configuration not stated) | nt | nt | -2.2 | 4 | -7%
Following part
SMILES | Arbovirus anti | YopH inh | RecA splice inh | Mtb bLac sens | Mtb growth | others
CCCCn1c(SCC(N)=O)nc2sc3c(c2c1=O)CCC3 | nt | nt | 1.4 | -7 | nt
CCN1CCN(Cc2nc3ccc([N+](=O)[O-])cc3c(=O)n2-c2ccc(OC)cc2OC)CC1 | nt | nt | -2.2 | -10 | nt
CC(=O)Nc1ccc(S(=O)(=O)N(C)CCOCc2ccccc2)cc1 | 12 | -6 | 1.3 | -9 | 2%
COc1ccc(CCNC(C)CCc2ccc(OC)cc2)cc1 (configuration not stated) | 7 | -33 | 8.9 | -6 | -3%
O=C(CSCc1ccccc1Br)N/N=C/c1ccc(OCC(=O)N2CCCCC2)cc1 | -9 | -5 | -1.0 | 1 | ?
O=C(COC(=O)CCOc1ccccc1)Nc1cc(S(=O)(=O)N2CCCCC2)ccc1Cl | nt | nt | -4.1 | 4 | nt
Cc1cc(C)n(C(=O)CNC(=O)c2ccccc2F)n1 | nt | nt | 1.3 | 2 | nt
CC(=O)Nc1sc2c(c1C(c1ccccc1)N1CCOCC1)CCCC2 (configuration not stated) | 0 | -19 | -0.1 | 1 | nt
